From PubChem BioAssay
Vif-A3F inh = blocks the Vif interaction with APOBEC3F; AID 602313; HeLa A3F-eYFP + Vif (tagged APOBEC3F with the HIV-1 protein that degrades it), YFP fluorescence increase; actives 0.2% (n = 390,000); Potency, µM (titrated, usually from 46.1 µM), without a hit: at the highest dose activity, negative = active; note: % of control where 0% means no effect; nearly all actives have a fitted effect of over 65% in size
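Fluorescence increase (Ex 488/Em 500-530) after overnight compound treatment at 37 deg C flags inhibition of Vif-driven A3F-eYFP loss in stable HeLa A3F-eYFP/Vif cells seeded overnight beforehand.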
TrxR1 inh = blocks rat thioredoxin reductase 1. AID 588453. Potency, µM (top dose mostly 114 µM), for inactives: at the top dose activity change, negative = inhibition, hits mostly inhibitors. actives 1% (n = 390,000). O89049. recombinant rTrxR1, NADPH fluorescence consumption, selenite substrate; note: % is set by controls: 0 for no effect and ±100 for the full control effect; nearly all actives have a fitted effect of over 65% in size
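Rat TrxR1 (90 nM in the dispensed reagent) was pre-reduced with 400 uM NADPH for 5 min at room temperature, then incubated with compound for 15 min. After 400 uM selenite was added, NADPH fluorescence (Ex 340/Em 450 nm) was followed for 8 min.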
TrxR1 substrate = substrates of rat thioredoxin reductase 1 | purified TrxR1 substrate turnover, NADPH consumption readout | actives 0.01% (n = 390,000) | Potency, µM (series often up to 114 µM), inactives show top-dose activity change, negative = substrate turnover | O89049; note: % is set by controls: 0 for no effect and ±100 for the full control effect; nearly all actives have a fitted effect of over 50% in size
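Rat TrxR1, dispensed at 90 nM, was prereduced with 400 uM NADPH (final) for 5 min at ~22 deg C, then incubated with compound 15 min before 400 uM selenite. A first-read NADPH fluorescence drop versus no-compound background flagged substrates.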
Vif-A3G inh = inhibitors of Vif-APOBEC3G interaction | HeLa A3G-eYFP + Vif (tagged APOBEC3G with the HIV-1 protein that degrades it), YFP fluorescence, overnight | Potency, µM (titrated, usually from 46.1 µM), for the others: at the top dose activity, negative = active, usual class: inhibitors | actives 0.076% (n = 410,000) | AID 602310;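 note: % is set by controls: 0 for no effect and ±100 for the full control effect; nearly all actives have a fitted effect of over 60% in size; hits raise eYFP signal because A3G escapes Vif-driven loss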
Target sequence (Q9HC16 whole entry, looked up): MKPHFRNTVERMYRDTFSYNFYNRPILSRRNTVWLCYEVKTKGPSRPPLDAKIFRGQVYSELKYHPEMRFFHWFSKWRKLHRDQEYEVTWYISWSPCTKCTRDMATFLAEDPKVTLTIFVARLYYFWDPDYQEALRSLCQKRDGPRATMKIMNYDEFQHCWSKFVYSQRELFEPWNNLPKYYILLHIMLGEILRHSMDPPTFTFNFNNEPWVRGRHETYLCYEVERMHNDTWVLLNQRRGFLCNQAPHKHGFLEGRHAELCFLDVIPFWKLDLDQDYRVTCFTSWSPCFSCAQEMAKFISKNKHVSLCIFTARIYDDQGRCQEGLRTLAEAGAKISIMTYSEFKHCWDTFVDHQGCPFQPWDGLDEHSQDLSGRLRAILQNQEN
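HeLa cells stably expressing Vif and C-terminally eYFP-tagged A3G, seeded overnight at 37 deg C, then exposed to compound by pintool overnight at 37 deg C. Rise in yellow fluorescence (Ex 488/Em 500-530, Acumen) marks blocked Vif-driven A3G degradation.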
mIDH1 inhibitor = blocks human mutant IDH1 R132H enzyme. O75874. IDH1-R132H enzyme, NADPH consumption, diaphorase/resazurin fluorescence. Potency, µM (doses to about 76.6 µM), for the others: at the highest dose activity change, negative = inhibition, most hits filed as inhibitors. actives 0.093% (n = 390,000). AID 602179; note: % is set by controls: 0 for no effect and ±100 for the full control effect; nearly all actives have a fitted effect of over 65% in size
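IDH1-R132H (0.5 ug/mL dispensed) in pH 7.5 Tris buffer was preincubated 30 min with compound, then given a substrate mix of 0.016 mM NADPH and 2 mM alpha-KG for 80 min at room temperature; remaining NADPH was read by diaphorase/resazurin fluorescence.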
The depositor's hits bear a star; ? = inconclusive; · = no result given; & = joins results of further samples; [ ] = another dose, or the depositor's remark. Calls come from the whole dose curve; as a rule, active = well fitted curve in the direction sought with a large enough effect; inconclusive = small, poorly fitted or top-dose-only effect, or another doubt; inactive = no such curve, though single readings can be large; an effect the other way counts as inactive or inconclusive. Potency is the fitted concentration of half-maximal effect. These rows are one share of the data (hit frequency here may not be typical).

no.	Structure	Vif-A3F inh	TrxR1 inh	TrxR1 substrate
1	CCOC(=O)c1cc(CC)sc1/N=C/c1c(O)[nH]c(=S)[nH]c1=O	?	?	-10.5%
2	O=c1[nH]oc2c1CCNC2	-4.9%	4.1%[57.1 µM]	9.9%[57.1 µM]
3	COc1ccc2c3c1OC1C(=O)CC[C@@]4(O)[C@@H](C2)N(C)CC[C@]314 (stereo not given in full)	-0.4%	?	4.6%
4	CN1CC[C@]23c4c5ccc(O)c4OC2[C@H](O)C=CC3[C@H]1C5 (stereo not given in full)	-10.9%	24.9%	5.2%
5	Cc1c(Br)c(=O)oc2cc(OCC(=O)N3C[C@H]4C[C@@H](C3)c3cccc(=O)n3C4)ccc12	-3.6%	1.5%	68.8%[activator]
6	CC(C)OC1CCCC(O)C1CC(=O)O (stereo not given)	5.5%	3.0%	-6.8%
7	CC(=O)c1c(O)c(C)c(O)c(Cc2c(O)c3c(c(C(=O)/C=C/c4ccccc4)c2O)OC(C)(C)C=C3)c1O	·	11.2µM*	4.6%[57.1 µM]
8	CN1[C@@H]2CC(OC(=O)[C@H](CO)c3ccccc3)C[C@H]1[C@@H]1O[C@@H]12 (stereo not given in full)	-5.2%&6.4%&0.6%&0.8%	31.1%&0.0%&13.9%&27.0%	8.6%&-9.3%&5.9%&14.9%

no.	Vif-A3G inh	mIDH1 inhibitor
1	3.2%	4.8%
2	3.1%	5.7%
3	-24.4%	-8.2%
4	-37.8%	2.9%
5	1.5%	6.2%
6	7.5%	-2.7%
7	·	·
8	-4.1%&-30.4%&-0.6%&2.0%	-0.2%&9.9%&3.6%&3.0%

A second format for some results above.
Every second line gives: Vif-A3F inh | TrxR1 inh | TrxR1 substrate | Vif-A3G inh | mIDH1 inhibitor
(6) CC(C)OC1CCCC(O)C1CC(=O)O (stereo not given)
    5.5% | 3.0% | -6.8% | 7.5% | -2.7%
(7) CC(=O)c1c(O)c(C)c(O)c(Cc2c(O)c3c(c(C(=O)/C=C/c4ccccc4)c2O)OC(C)(C)C=C3)c1O
    · | 11.2µM* | 4.6%[57.1 µM] | · | ·
(8) CN1[C@@H]2CC(OC(=O)[C@H](CO)c3ccccc3)C[C@H]1[C@@H]1O[C@@H]12 (stereo not given in full)
    -5.2%&6.4%&0.6%&0.8% | 31.1%&0.0%&13.9%&27.0% | 8.6%&-9.3%&5.9%&14.9% | -4.1%&-30.4%&-0.6%&2.0% | -0.2%&9.9%&3.6%&3.0%

Compound profiles (already shown).
`CCOC(=O)c1cc(CC)sc1/N=C/c1c(O)[nH]c(=S)[nH]c1=O` across the screens: Vif-A3F inh: ?; TrxR1 inh: ?; TrxR1 substrate: -10.5%; Vif-A3G inh: 3.2%; mIDH1 inhibitor: 4.8%
`COc1ccc2c3c1OC1C(=O)CC[C@@]4(O)[C@@H](C2)N(C)CC[C@]314` (stereo not given in full) across the screens: Vif-A3F inh: -0.4%; TrxR1 inh: ?; TrxR1 substrate: 4.6%; Vif-A3G inh: -24.4%; mIDH1 inhibitor: -8.2%
